UCH37 DUB inh: inhibitors of human UCH37 deubiquitinase, primary screen, biochemical, Ub-AMC cleavage, fluorescence; purified proteasome/UCH37; inhibition, % (test concentration not listed); hit rate 0.33% among 330,000; AID 588478, 2011;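 active means mean of two replicates above 20%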;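 further: 0% = compound-free wells with enzyme and 100% = wells lacking proteasome; stock transfer was 100 nL into about 20 µL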
Target sequence (Q9Y5K5 whole entry, looked up): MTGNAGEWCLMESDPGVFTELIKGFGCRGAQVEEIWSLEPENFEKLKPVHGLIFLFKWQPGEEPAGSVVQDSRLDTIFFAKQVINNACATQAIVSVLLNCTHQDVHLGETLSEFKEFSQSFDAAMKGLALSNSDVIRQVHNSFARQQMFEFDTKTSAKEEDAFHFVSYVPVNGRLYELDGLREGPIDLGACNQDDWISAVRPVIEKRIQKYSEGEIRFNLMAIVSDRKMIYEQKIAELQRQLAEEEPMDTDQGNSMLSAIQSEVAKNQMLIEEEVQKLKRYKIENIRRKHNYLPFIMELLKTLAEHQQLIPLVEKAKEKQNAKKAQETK
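Assay system: Proteasome-bound UCH37. Buffer or medium: pH 7.4 Tris-HCl (50 mM) with ovalbumin, ATP-MgCl2, DTT. Incubation: 30 min preincubation with enzyme, 25 min cleavage at room temperature. Measured by: fluorescence, ex 355 nm, em 460 nm. Read-out basis: percent inhibition. Control set: wells without proteasome as full block, compound-free enzyme plus substrate as uninhibited.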
Ecoli growth: E. coli growth inhibition, primary screen, OD600; Escherichia coli growth, 23 h; stronger effect = lower value; OD600 absorbance (test concentration not listed); hit rate 0.21% among 330,000; AID 1053175, 2014;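 active means OD600 absorbance below the run mean of sample wells minus 3.6 SD, in any replicate, cut at about 0.56 in these data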;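 further: stock transfer was 300 nL into about 60 µL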
The depositor's hits bear a star; i = inactive. Not all compounds are listed; rates above refer to the full screens.

SMILES	UCH37 DUB inh	Ecoli growth
CC(=NNC(=O)Cc1cccn1C)c1ccc([N+](=O)[O-])cc1	6.5	0.63
Cc1cc(C(=O)ON=C(N)c2ccc(C(C)(C)C)cc2)no1	2.7	0.62
CC(=NNC(=O)c1cccc(N2CCCC2=O)c1)c1ccc(N)cc1	6.6	0.66
CCOC(=O)C(CCC[N+](C)(CC)CC)=NO	3.5	0.67
Cc1cccc(N2C(=O)CSC2=NNC(=O)c2ccc(Cl)cc2)c1C	5.2	0.62
CN(C)c1ccc(C=NNC(=O)CCCCCNC(=O)c2ccccc2)cc1	-90	0.68
O=C(NN=Cc1cc(Br)c(Br)o1)C1COc2ccccc2O1 (stereo not drawn)	4.4	0.63
Cc1ccc(C(=O)NN=Cc2cccc(OC(=O)/C=C/c3ccco3)c2)cn1	2.3	0.69
COc1ccc(/C=C(/NC(=O)c2ccccc2)C(=O)NN=Cc2ccncc2)c(OC)c1	9.9	0.7
O=C(NN=Cc1ccc(OCC(=O)N2CCCC2)cc1)C(=O)Nc1ccccc1F	5.4	0.7
NC(=O)COc1ccc(C=NNC(=O)C2CCCN2S(=O)(=O)c2ccc(Cl)cc2)cc1 (stereo not drawn)	0.6	0.69
Cc1ccn2c(C=NOCc3ccc(F)cc3)c(-c3ccc(Cl)cc3)nc2c1	-157	0.74
CCCN=C1CC(C)(C)CC(=O)/C1=C(\O)CCCN1C(=O)c2ccccc2C1=O	-0.9	0.67
CCc1ccc[n+](-c2[nH]c(=O)sc2C=NNC([S-])=Nc2ccccc2)c1	22*	0.69
CC(CC(=O)NCc1ccc(Cl)cc1)=NNC(=O)COc1ccc(C)cc1Br	3.4	0.65
COc1ccc2oc(=NNC(=O)c3cccs3)c(C(N)=O)cc2c1	5.0	0.69
CC(=NNC(=O)c1ccc(F)cc1)c1ccc(NC(=O)Cc2ccccc2)cc1	1.4	0.73
O=C(NN=Cc1cccnc1)c1cc(Br)ccc1O	5.6	0.64
COc1ccccc1-c1c(C#N)c(SCC(=O)N2CCCC2)nc(C)c1C(N)=O	-1.9	0.74
CCOC(=O)c1c(NC(=O)NN=Cc2ccccc2OCC)sc(C(C)=O)c1C	0.1	0.7
CCN(CC)Cc1c(C(=O)NN=C(C)c2ccncc2)nnn1-c1nonc1N	6.1	0.72
Cc1ccccc1NC(=O)C(C)ON=Cc1cccc([N+](=O)[O-])c1 (stereo not drawn)	-0.6	0.69
COc1ccc(NN=C(C(N)=O)C2=NC(C)(C)Cc3ccccc32)cc1	2.4	0.67
Cc1ccc(-n2nc(C(=O)NN=Cc3cccc(C(F)(F)F)c3)c3ccccc3c2=O)cc1C	-24	0.81
Oc1ccccc1C=NN1CCN(c2ccccn2)CC1	2.7	0.69
C=CCNC(=S)N=c1ccccn1Cc1ccccc1	4.8	0.66
CCOc1ccc(-c2c(C(=O)NN=C(C)c3ccccc3OC)nnn2-c2nonc2N)cc1	0.2	0.68
N#CC(C(=O)OC1CCCCC1)c1nc2ccccc2nc1N1CCCCC1 (stereo not drawn)	0.2	0.72
COc1cccc(C(=O)NN=Cc2ccc(OC)c(COc3ccccc3C(N)=O)c2)c1	1.3	0.69
CC(CCC1=C(C)CCCC1(C)C)=NNC(N)=S	1.0	0.73

Structures from the list above that contain nitrogen in an aromatic ring, in the order listed:
SMILES	UCH37 DUB inh	Ecoli growth
CC(=NNC(=O)Cc1cccn1C)c1ccc([N+](=O)[O-])cc1	6.5	0.63
Cc1cc(C(=O)ON=C(N)c2ccc(C(C)(C)C)cc2)no1	2.7	0.62
Cc1ccc(C(=O)NN=Cc2cccc(OC(=O)/C=C/c3ccco3)c2)cn1	2.3	0.69
COc1ccc(/C=C(/NC(=O)c2ccccc2)C(=O)NN=Cc2ccncc2)c(OC)c1	9.9	0.7
Cc1ccn2c(C=NOCc3ccc(F)cc3)c(-c3ccc(Cl)cc3)nc2c1	-157	0.74
CCc1ccc[n+](-c2[nH]c(=O)sc2C=NNC([S-])=Nc2ccccc2)c1	22*	0.69
O=C(NN=Cc1cccnc1)c1cc(Br)ccc1O	5.6	0.64
COc1ccccc1-c1c(C#N)c(SCC(=O)N2CCCC2)nc(C)c1C(N)=O	-1.9	0.74
CCN(CC)Cc1c(C(=O)NN=C(C)c2ccncc2)nnn1-c1nonc1N	6.1	0.72
Cc1ccc(-n2nc(C(=O)NN=Cc3cccc(C(F)(F)F)c3)c3ccccc3c2=O)cc1C	-24	0.81
Oc1ccccc1C=NN1CCN(c2ccccn2)CC1	2.7	0.69
C=CCNC(=S)N=c1ccccn1Cc1ccccc1	4.8	0.66
CCOc1ccc(-c2c(C(=O)NN=C(C)c3ccccc3OC)nnn2-c2nonc2N)cc1	0.2	0.68
N#CC(C(=O)OC1CCCCC1)c1nc2ccccc2nc1N1CCCCC1 (stereo not drawn)	0.2	0.72

Further entries follow.
SMILES	UCH37 DUB inh	Ecoli growth
COc1ccc(C=NNC(=O)c2ccc(COc3cccc4cccnc34)cc2)cc1O	4.2	0.64
O=C(NN=Cc1cccnc1)c1cc(-c2ccccc2)nc2c(Cl)cccc12	0.6	0.69
O=C(C=NO)Nc1ccc(F)cc1	-1.2	0.69
ON=C1CCCCC1c1ccccn1 (stereo not drawn)	1.3	0.78
CC(CC(=O)Nc1cccc(Cl)c1C)=NNC(=O)C(=O)NCC(C)C	3.1	0.69
O=C(NN=Cc1ccc2nccnc2c1)c1ccc(Br)cc1	1.5	0.66
FC(F)Oc1ccc(C=NN2CCCCC2)c(OC(F)F)c1	0.5	0.61
O=C(NN=C1CCCCc2ccccc21)c1ccccn1	2.4	0.66
CC(=NN(Cc1ccccc1)c1ccccc1)c1cccnc1	5.3	0.64
Cc1cc(C(=O)NN=Cc2cccc([N+](=O)[O-])c2)c(C)o1	2.2	0.74
CC(=NNc1ncc(Br)cn1)c1ccc([N+](=O)[O-])cc1	4.3	0.69
CCOC(C)=Nn1c2nc3ccccc3nc2c2c(=O)n(CC(C)C)c(C)nc21	5.3	0.75
Cc1cccn2c(=O)c(C=NO)c(N3CCOCC3)nc12	6.6	0.66
O=c1c2ccccc2[nH]c(=S)n1CCN1CCC(=C(c2ccc(F)cc2)c2ccc(F)cc2)CC1	-2.1	0.73
COc1cccc(N=c2oc3c(C)ncc(CO)c3cc2C(=O)Nc2ccccc2OC)c1	5.8	0.67
COc1ccc(CN(C)C(C)C(=O)Nc2ccc(S(=O)(=O)N3CCCC3)cc2)c(OC)c1OC (stereo not drawn)	1.3	0.66
O=C(O)COc1ccc(C=NNC(=O)c2cccc3ccccc23)cc1	7.2	0.69
CCOc1ccc2ccccc2c1C=NNC(=O)CNC(=O)c1ccccc1F	-10	0.66
COc1ccc(C=NOC/C(O)=C(\C#N)c2nc3ccccc3[nH]2)cc1OC	2.5	0.72
O=C(NN=Cc1ccco1)C1CC1c1ccccc1 (stereo not drawn)	4.2	0.62
O=C(NN=Cc1ccc([N+](=O)[O-])o1)c1cc2c(ccc3ccccc32)o1	8.6	0.65
CC(=NNC(=S)NCCc1ccccc1)c1ccc(O)cc1O	5.0	0.66
CCNC(=S)NN=Cc1ccc(C(=O)O)cc1	6.0	0.74
Cc1c(C(=O)NN=Cc2ccccc2)sc(=S)n1C	4.3	0.67
NC(=O)c1cc2ccccc2oc1=NNC(=O)c1ccccc1	6.3	0.64
COCCNC(=S)NN=Cc1ccc(-c2ccc([N+](=O)[O-])cc2)o1	2.8	0.7
O=C(CN1CCN(Cc2ccccc2)CC1)NN=Cc1cccnc1	2.1	0.67
CCc1ccc(C(C)=NNc2ccc([N+](=O)[O-])cc2)cc1	-0.1	0.69
CCC12CN3CCN(CC(C3)C1=NNC(=O)c1ccc(F)cc1)C2	1.8	0.72
CCc1ccc(OCC(=O)NN=C(C)c2ccccc2OC(F)F)cc1	1.0	0.65
O=C(CCC(=O)Nc1ccccc1)NN=Cc1ccco1	2.6	0.69
COCCn1c(SCC(=O)Nc2ncc(C)s2)nc2sc3c(c2c1=O)CCC3	-0.2	0.66
O=C(NN=Cc1ccccc1O)c1cccc2ccccc12	-4.1	0.63
O=C(NN=Cc1cccnc1)c1cc(-c2ccc(Cl)s2)[nH]n1	7.3	0.69
Cc1cccc2cc(C=NNC(=O)CN3CCCCC3)c(Cl)nc12	4.9	0.66
CC(=NOCC(=O)NCC(F)(F)F)c1cc2ccccc2o1	3.3	0.62
C/C(C=NNC(=O)Cc1cccn1C)=C/c1ccco1	9.8	0.73
COc1ccc(CC(C)=NNC(=S)Nc2ccc(C)c(C)c2)cc1	4.9	0.7
CC(C)C(=O)Nc1ccc(C(=O)NN=CC2CC3C=CC2C3)cc1 (stereo not drawn)	4.0	0.69
Cc1ccsc1C=NNC(=O)Cn1nnc2ccccc21	2.6	0.68
Cc1cccc(OCCOc2ccc(C=NNC(=O)Cc3nnc(N)s3)cc2)c1	2.5	0.76
COc1cc(C=NN(CCO)C2=NS(=O)(=O)c3ccccc32)cc(OC)c1OC	-2.5	0.7
Cc1cc(C)cc(OCC(=O)NN=Cc2cn(C)nc2C)c1	1.0	0.6
O=C(NN=Cc1cccs1)c1ccc2ccccc2c1	1.4	0.64
O=C(NN=C1CCS(=O)(=O)c2ccc(F)cc21)c1ccccn1	2.2	0.64
NC(=S)NN=C1CC(c2ccc3c(c2)OCCCO3)Oc2ccc(F)cc21 (stereo not drawn)	2.5	0.63
Cc1ccc(-n2nc(C)c(C=Nn3c(C)n[nH]c3=S)c2Cl)cc1	4.6	0.68
CC(Cc1ccccc1)=NNC(=O)CNC(=O)/C=C\c1ccccc1	1.0	0.64
Cc1cc(C(=O)NN=C/C=C/c2ccccc2)n[nH]1	10	0.69
CC(=NO)c1c(C)c2ccccc2n1C	0.5	0.68
COc1cc(C=NNC(=O)CC23CC4CC(CC(C4)C2)C3)cc(Br)c1OCC(=O)N(C)C	3.4	0.68
CC(=NNc1nc(-c2ccccc2)c(CC(=O)O)s1)c1ccccc1	8.3	0.68
CC(Sc1nnc(CNc2cccc3ccccc23)n1-c1ccccc1)C(=O)NN=Cc1ccco1 (stereo not drawn)	-4.8	0.72
C#CCOc1c(Br)cc(C=NO)cc1OCC	4.8	0.77
Cc1cc(C)nc(N=C(N)Nc2ccccc2-c2ccccc2)n1	3.9	0.64
O=C(NN=Cc1ccc2c(c1)OCO2)c1ccc(Cn2cc([N+](=O)[O-])cn2)o1	10	0.69
CC(=O)ON=C(N)c1ccc(-c2csnn2)cc1	2.8	0.64
Cn1cccc1CC(=O)NN=Cc1ccc([N+](=O)[O-])cc1	9.3	0.66
N#CCCn1cc(C=NO)c(-c2cccc([N+](=O)[O-])c2)n1	-0.8	0.7
COc1ccc(C=NNC(=O)CCc2ccccc2)cc1O	2.5	0.67

(next part)
SMILES	UCH37 DUB inh	Ecoli growth
COc1ccc(OC)c(C=NNC(=O)CC(=O)NC2CCCCC2)c1	i	0.71
Cc1ccsc1C=NNc1ncc(Cl)cc1Cl	-0.6	0.7
Cc1ccc(OCC(=O)NN=Cc2ccc3c(c2)OCO3)cc1C	0.0	0.74
Cc1ccc(C)c(-n2c(C)cc(C=NNC(=O)c3c(C)nc4cc(C)ccn34)c2C)c1	3.1	0.73
Nc1nonc1C(=O)NN=Cc1cc2c(cc1[N+](=O)[O-])OCO2	2.4	0.71
C=C(C)C1CC=C(C)C(=NNC(=O)CCC(=O)Nc2ccccc2Cl)C1 (stereo not drawn)	3.8	0.73
Cc1cccn2c(=O)c(C=NO)c(N3CCCCC3)nc12	2.3	0.73
CC(=NNC(=O)CSCc1ccccc1Cl)c1cccc(NC(=O)c2ccccc2)c1	-0.5	0.74
CCOc1ccc(C=Nn2cnnc2)cc1	1.7	0.64
Cc1ccc(-n2c(C)cc(C=NNC(=O)CC3(C)OCCO3)c2C)cc1	5.6	0.69
Cc1ccc(CONC(=O)N=CN(C)C)cc1	-1.2	0.71
CCCc1c(C(=O)NN=Cc2ccc(C)s2)nnn1-c1nonc1N	1.1	0.72
O=C(O)c1ccc(C=NNc2ccc(Cl)nn2)cc1	11	0.64
O=S(=O)(NN=C1CCCc2ccccc21)c1ccc(Br)cc1	4.3	0.73
O=C(CCn1cnc2ccccc21)NN=Cc1ccccc1O	-35	0.69
Cc1cc(C(=O)NN=Cc2cccs2)n[nH]1	11	0.69
O=C(O)c1cc(NN=C2CC(c3ccccc3)Oc3ccccc32)ccc1Cl (stereo not drawn)	-1.3	0.67
O=C(O)c1ccccc1NS(=O)(=O)c1ccc(NN=Cc2cccc(O)c2O)c([N+](=O)[O-])c1	32*	0.64
CC(=NNC(=O)C1CC1)c1ccc(OC(F)F)cc1	-1.4	0.7
Cc1c(C=NNC(=O)c2cc(Br)ccc2O)c(=O)n(C)c(=O)n1C	11	0.67
C[N+](C)(C)C(Cc1c[nH]c2ccccc12)C(=O)[O-] (stereo not drawn)	5.9	0.71
COc1cc(C=NNC(=O)CC#N)cc(Br)c1O	-62	0.68
Cc1ccc(N2C(=O)CC(N3CCN(C)CC3)C2=O)cc1 (stereo not drawn)	4.8	0.73
Cc1cc(Br)c(OCc2ccc(C(=O)NN=C3CC4CC=CC34)cc2)c(Br)c1 (stereo not drawn)	1.1	0.66
CCCCC/C(C=NNc1ccc(S(=O)(=O)N2CCOCC2)cc1[N+](=O)[O-])=C\c1ccccc1	13	0.73
O=C(CN1CCN(S(=O)(=O)c2ccc(Br)cc2)CC1)NN=Cc1cccnc1	1.8	0.68
COc1ccccc1OCCOc1ccc(C=Nn2cnnc2)cc1	0.8	0.7
COc1ccc(C=NNC(N)=S)cc1	7.7	0.66
O=C(NN=C1CCc2ccccc21)c1ccccc1Cl	-0.1	0.67
